From PubChem BioAssay
Env fusion inh = inhibitors of HIV-1 Env-driven cell-cell fusion, primary screen, HeLa-JRFL effector, CEM21 target cells, luciferase | AID 651610, 2012 | actives 1.1% (n = 360,000) | inhibition, % at 12.3 µM;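 active means mean replicate inhibition score of at least 50 and every replicate individually at or above 50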;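 further: 0% = plate neutral controls and 100% = maraviroc near 300 nM; one replicate is shown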
Yeast UUG start = modulators of yeast start codon fidelity, primary screen, whole organism, S. cerevisiae, single point, plate reader | actives 0.13% (n = 350,000) | activity score, % at 18.7 µM | S. cerevisiae UUG-firefly luciferase reporter, luminescence/redox ratio;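 active means replicate mean at a twofold rise or more, about +100% in these data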;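 further: firefly luciferase made from a UUG start codon reports start codon fidelity; reporter light over untreated wells divided by growth signal over untreated wells; some hits fall short of that in this replicate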
* = called active by the depositor; [ ] = remark or other dose. This is a subset; the hit share may differ from the screen's.

Preview, 4 compounds:
Results follow in this order: Env fusion inh	Yeast UUG start
> C[C@@H]1CN([C@H](C)CO)S(=O)(=O)c2ccc(C#CC3CCCCC3)cc2O[C@@H]1CN(C)C(=O)Cc1ccncc1
 : -25.1[16.7 µM]	-0.8
> C[C@@H]1CN([C@H](C)CO)C(=O)c2cccc(NC(=O)Nc3ccc(C(F)(F)F)cc3)c2O[C@H]1CN(C)Cc1ccc(C(F)(F)F)cc1
 : 59.0*[16.7 µM]	-8.6
> C[C@H]1CN([C@@H](C)CO)S(=O)(=O)c2ccc(C#CC3CCCC3)cc2O[C@H]1CN(C)C(=O)Nc1cc(F)ccc1F
 : 1.3[16.7 µM]	-14.4
> COCC(=O)Nc1ccc2c(c1)[C@H]1C[C@@H](CC(=O)NCC(F)(F)F)O[C@@H](CO)[C@H]1O2
 : 12.0[16.7 µM]	-0.4

The listing, previewed entries included:
Results follow in this order: Env fusion inh	Yeast UUG start
> C[C@@H]1CN([C@H](C)CO)S(=O)(=O)c2ccc(C#CC3CCCCC3)cc2O[C@@H]1CN(C)C(=O)Cc1ccncc1
 : -25.1[16.7 µM]	-0.8
> C[C@@H]1CN([C@H](C)CO)C(=O)c2cccc(NC(=O)Nc3ccc(C(F)(F)F)cc3)c2O[C@H]1CN(C)Cc1ccc(C(F)(F)F)cc1
 : 59.0*[16.7 µM]	-8.6
> C[C@H]1CN([C@@H](C)CO)S(=O)(=O)c2ccc(C#CC3CCCC3)cc2O[C@H]1CN(C)C(=O)Nc1cc(F)ccc1F
 : 1.3[16.7 µM]	-14.4
> COCC(=O)Nc1ccc2c(c1)[C@H]1C[C@@H](CC(=O)NCC(F)(F)F)O[C@@H](CO)[C@H]1O2
 : 12.0[16.7 µM]	-0.4
> C[C@H](CO)N1C[C@H](C)[C@@H](CN(C)C(=O)Nc2ccc3c(c2)OCO3)Oc2ccc(NC(=O)Cn3cnnn3)cc2CC1=O
 : 18.7[16.7 µM]	1.2
> C[C@@H]1CN([C@H](C)CO)C(=O)c2cc(NC(=O)Cn3cnnn3)ccc2O[C@H]1CN(C)CC1CCCCC1
 : 11.5[16.7 µM]	-12.0
> C[C@H](CO)N1C[C@H](C)[C@@H](CN(C)S(=O)(=O)c2cccs2)OCCCC[C@H](C)Oc2ccc(NC(=O)c3ccncc3)cc2C1=O
 : -20.9[16.7 µM]	4.2
> CCCC#Cc1ccc([C@H]2[C@@H](C#N)N(C(=O)C3CCCCC3)[C@H]2CO)cc1
 : 5.2[16.7 µM]	1.6
> O=C(O)C[C@@H]1C[C@@H]2c3cc(NC(=O)c4ccc5c(c4)OCO5)ccc3O[C@@H]2[C@@H](CO)O1
 : 2.5[16.7 µM]	1.5
> C[C@H](CO)N1C[C@H](C)[C@H](CN(C)C(=O)C2CCCCC2)Oc2ncc(/C=C/c3ccccc3)cc2C1=O
 : 23.9[16.7 µM]	8.3
> C[C@@H]1CN([C@@H](C)CO)C(=O)Cc2cc(NC(=O)Cc3cn(C)c4ccccc34)ccc2O[C@H]1CN(C)S(=O)(=O)c1cn(C)cn1
 : 11.6[16.7 µM]	11.8
> C[C@@H]1CCCCO[C@@H](CN(C)CC2CC2)[C@H](C)CN([C@H](C)CO)C(=O)c2cc(NC(=O)Nc3ccc(C(F)(F)F)cc3)ccc2O1
 : 9.7[16.7 µM]	34.6
> C[C@@H]1CCCCO[C@H](CN(C)Cc2ccccc2)[C@@H](C)CN([C@@H](C)CO)C(=O)c2cc(NC(=O)Cc3ccccc3)ccc2O1
 : -23.9[16.7 µM]	16.1
> CC(=O)N(C)C[C@@H]1Oc2ncc(-c3cccc(F)c3)cc2C(=O)N([C@@H](C)CO)C[C@H]1C
 : 2.9[16.7 µM]	9.8
> COc1ccc(S(=O)(=O)N[C@@H]2C=C[C@H](CC(=O)N3CCc4ccccc4C3)O[C@H]2CO)cc1
 : -4.0[16.7 µM]	-0.4
> COc1ccc(S(=O)(=O)Nc2ccc3c(c2)C(=O)N([C@H](C)CO)C[C@@H](C)[C@H](CN(C)C(=O)C2CCCCC2)OCCCC[C@H](C)O3)cc1
 : -29.0[16.7 µM]	20.3
> C[C@@H]1CN([C@H](C)CO)C(=O)c2cc(NS(=O)(=O)c3cccs3)ccc2O[C@@H](C)CCCCO[C@@H]1CN(C)S(=O)(=O)c1ccc(F)cc1
 : -13.6[16.7 µM]	-6.2
> C[C@H]1CN([C@@H](C)CO)C(=O)c2cccc(NC(=O)Nc3ccccc3)c2O[C@@H]1CN(C)Cc1ccc(-c2ccccc2)cc1
 : 12.3[16.7 µM]	2.6
> C[C@H](CO)N1C[C@H](C)[C@@H](CN(C)Cc2ccc(Oc3ccccc3)cc2)Oc2c(NC(=O)c3nc4ccccc4s3)cccc2C1=O
 : -6.5[16.7 µM]	-10.4
> C[C@@H]1CN([C@@H](C)CO)C(=O)Cc2cc(NS(=O)(=O)c3cn(C)cn3)ccc2O[C@H]1CN(C)C(=O)Nc1cccc2ccccc12
 : -11.3[16.7 µM]	-12.2
> C[C@H]1CN([C@@H](C)CO)S(=O)(=O)c2ccc(-c3cncnc3)cc2O[C@H]1CN(C)C(=O)C1CC1
 : 2.1[16.7 µM]	-6.1
> CO[C@@H]1CN(C)C(=O)c2cc(NC(=O)C3CCCC3)ccc2OC[C@@H](C)N(C(=O)CC2CC2)C[C@@H]1C
 : -1.7[16.7 µM]	11.0
> CO[C@@H]1CN(C)C(=O)c2cc(NC(=O)C3CCCC3)ccc2OC[C@@H](C)N(C(=O)CC2CC2)C[C@H]1C
 : -8.9[16.7 µM]	6.2
> CCC(=O)Nc1ccc2c(c1)C(=O)N(C)[C@H]1CC[C@H](CC(=O)NCc3ccccc3)O[C@@H]1CO2
 : -6.6[16.7 µM]	-9.5
> CC(C)CC#Cc1ccc2c(c1)O[C@@H](CN(C)C(=O)Nc1ccccc1F)[C@@H](C)CN([C@@H](C)CO)S2(=O)=O
 : 9.4[16.7 µM]	-2.3
> C/C=C/c1ccc2c(c1)O[C@@H](CN(C)C(=O)Nc1ccc(F)cc1)[C@H](C)CN([C@H](C)CO)S2(=O)=O
 : -10.5[16.7 µM]	-4.4
> C[C@H](CO)N1C[C@H](C)[C@H](CN(C)S(=O)(=O)c2cccs2)OCCCC[C@H](C)Oc2ccc(NS(=O)(=O)c3cccs3)cc2C1=O
 : -92.6[16.7 µM]	-26.1
> Cc1noc(C)c1NC(=O)N(C)C[C@@H]1Oc2ccc(NS(=O)(=O)c3ccc(F)cc3)cc2CC(=O)N([C@@H](C)CO)C[C@H]1C
 : -12.0[16.7 µM]	4.1
> CC(C)CC#Cc1ccc2c(c1)O[C@@H](CN(C)Cc1ccc(F)cc1)[C@@H](C)CN([C@H](C)CO)S2(=O)=O
 : 26.7[16.7 µM]	-1.2
> O=C(C[C@H]1CC[C@H](NS(=O)(=O)c2ccc(F)cc2)[C@H](CO)O1)NCCc1ccncc1
 : 0.5[16.7 µM]	-14.4

The listing continues.
molecule | Env fusion inh | Yeast UUG start
CCCC#Cc1cnc2c(c1)C(=O)N([C@H](C)CO)C[C@@H](C)[C@@H](CN(C)Cc1ccncc1)O2 | 26.6[16.7 µM] | -2.8
CCCC#Cc1cnc2c(c1)C(=O)N([C@@H](C)CO)C[C@H](C)[C@H](CN(C)C(=O)NCCC)O2 | -13.4[16.7 µM] | 0.6
C[C@@H]1CCCCO[C@@H](CN(C)S(=O)(=O)c2cn(C)cn2)[C@@H](C)CN([C@H](C)CO)C(=O)c2cc(NC(=O)CCC(F)(F)F)ccc2O1 | 19.6[16.7 µM] | 0.4
Cc1ccc(S(=O)(=O)N(C)C[C@@H]2Oc3ccc(NS(=O)(=O)c4ccccc4)cc3CC(=O)N([C@H](C)CO)C[C@H]2C)cc1 | -11.7[16.7 µM] | -18.3
COc1ccc(NC(=O)N[C@H]2CC[C@H](CCNC(=O)c3ccccc3F)O[C@@H]2CO)cc1 | 13.4[16.7 µM] | -7.4
CCCNC(=O)N(C)C[C@@H]1Oc2ncc(-c3ccc(F)cc3)cc2C(=O)N([C@H](C)CO)C[C@@H]1C | 0.5[16.7 µM] | -6.2
COc1ccc(NC(=O)Nc2ccc3c(c2)C(=O)N([C@@H](C)CO)C[C@@H](C)[C@H](CN(C)Cc2ccccc2)O3)cc1 | -16.8[16.7 µM] | -14.2
C[C@H]1CCCCO[C@H](CN(C)C(=O)NC2CCCCC2)[C@@H](C)CN([C@@H](C)CO)C(=O)c2cc(NS(=O)(=O)c3ccccc3)ccc2O1 | 28.1[16.7 µM] | 5.5
COCC(=O)N(C)C[C@@H]1Oc2cc(C#CCC3CCCC3)ccc2S(=O)(=O)N([C@H](C)CO)C[C@@H]1C | -1.6[16.7 µM] | 3.8
Cc1ccc(S(=O)(=O)N(C)C[C@H]2OCCCC[C@@H](C)Oc3ccc(NS(=O)(=O)c4ccccc4)cc3C(=O)N([C@@H](C)CO)C[C@H]2C)cc1 | -60.8[16.7 µM] | 0.3
CNC[C@H]1Oc2c(NS(=O)(=O)c3cn(C)cn3)cccc2C(=O)N([C@H](C)CO)C[C@@H]1C | 12.8[16.7 µM] | -4.0
CCCNC(=O)C[C@H]1CC[C@@H]2[C@H](COc3ccc(NC(=O)COC)cc3C(=O)N2C)O1 | -11.2[16.7 µM] | -18.8
Cc1ccc(S(=O)(=O)N(C)C[C@H]2OCCCC[C@H](C)Oc3ccc(NC(=O)Cc4ccccc4)cc3C(=O)N([C@H](C)CO)C[C@H]2C)cc1 | -33.0[16.7 µM] | -14.1
C[C@@H]1CCCCO[C@H](CN(C)S(=O)(=O)c2ccc(F)cc2)[C@@H](C)CN([C@H](C)CO)C(=O)c2cc(NC(=O)Cc3ccccc3)ccc2O1 | 1.6[16.7 µM] | -13.1
CO[C@H]1CN(C)C(=O)c2cc(NC(C)=O)ccc2OC[C@@H](C)N(CCC(F)(F)F)C[C@H]1C | 11.5[16.7 µM] | 3.1
C[C@@H]1CN([C@@H](C)CO)C(=O)c2cc(C3=CCCC3)cnc2O[C@H]1CN(C)S(C)(=O)=O | -3.4[16.7 µM] | -2.7
COc1cccc(-c2cnc3c(c2)C(=O)N([C@H](C)CO)C[C@H](C)[C@H](CN(C)S(=O)(=O)c2ccc(C#N)cc2)O3)c1 | -5.2[16.7 µM] | 19.6
CNC[C@H]1OCCCC[C@@H](C)Oc2ccc(NS(=O)(=O)c3c(C)noc3C)cc2C(=O)N([C@@H](C)CO)C[C@H]1C | -8.2[16.7 µM] | 8.5
Cc1ccc(S(=O)(=O)N(C)C[C@@H]2Oc3ccc(NC(=O)Nc4c(C)noc4C)cc3C(=O)N([C@H](C)CO)C[C@@H]2C)cc1 | -151.2[16.7 µM] | -12.8
O=C(NCC[C@H]1CC[C@@H](NS(=O)(=O)c2cccc(F)c2)[C@@H](CO)O1)C1CCCC1 | 24.2[16.7 µM] | -4.1
COCC(=O)Nc1ccc2c(c1)OC[C@H](C)N(CCC(F)(F)F)C[C@H](C)[C@@H](OC)CN(C)C2=O | 2.3[16.7 µM] | -2.9
C[C@H](CO)N1C[C@H](C)[C@H](CN(C)C(=O)CN(C)C)Oc2ncc(C#Cc3cccnc3)cc2C1=O | -13.5[16.7 µM] | -4.5
CO[C@@H]1CN(C)C(=O)c2cc(NS(=O)(=O)c3ccccc3)ccc2OC[C@H](C)N(C)C[C@H]1C | 2.6[16.7 µM] | -4.6
C[C@H](CO)N1C[C@H](C)[C@@H](CN(C)Cc2ccccc2)OCCCC[C@H](C)Oc2ccc(NC(=O)Nc3ccc4c(c3)OCO4)cc2C1=O | 9.5[16.7 µM] | -2.3
C[C@@H]1CN([C@H](C)CO)C(=O)c2cc(-c3ccc(C#N)cc3)cnc2O[C@@H]1CN(C)C(=O)c1ccccc1 | 6.8[16.7 µM] | -5.9
CC(C)NC(=O)N[C@H]1CC[C@H](CCNC(=O)C2CCCC2)O[C@H]1CO | -23.7[16.7 µM] | -1.0
COc1cccc(NC(=O)N(C)C[C@H]2Oc3ncc(C#Cc4cccnc4)cc3C(=O)N([C@H](C)CO)C[C@@H]2C)c1 | -14.6[16.7 µM] | 4.8
C[C@@H]1CCCCO[C@@H](CN(C)C(=O)Nc2ccc(C(F)(F)F)cc2)[C@@H](C)CN([C@H](C)CO)C(=O)c2cc(NS(=O)(=O)c3cn(C)cn3)ccc2O1 | 5.0[16.7 µM] | -12.0
CNC(=O)C[C@H]1CC[C@@H]2[C@@H](COc3ccc(NC(=O)NC4CCCC4)cc3C(=O)N2C)O1 | -8.0[16.7 µM] | -8.3
CN(C)CC(=O)N1[C@@H](C#N)[C@H](c2ccc(-c3ccccc3F)cc2)[C@@H]1CO | -0.9[16.7 µM] | 4.7
Cc1noc(C)c1S(=O)(=O)N(C)C[C@@H]1OCCCC[C@@H](C)Oc2ccc(NS(=O)(=O)c3cn(C)cn3)cc2C(=O)N([C@H](C)CO)C[C@@H]1C | -7.8[16.7 µM] | 3.4
Cc1ccc(S(=O)(=O)N(C)C[C@H]2OCCCC[C@H](C)Oc3ccc(NC(=O)NC4CCCCC4)cc3C(=O)N([C@H](C)CO)C[C@@H]2C)cc1 | -22.2[16.7 µM] | 7.8
Cc1noc(C)c1NC(=O)Nc1ccc2c(c1)C(=O)N([C@@H](C)CO)C[C@H](C)[C@@H](CN(C)C(=O)Cc1ccccc1)OCCCC[C@@H](C)O2 | -18.7[16.7 µM] | 9.7
C[C@H](CO)N1C[C@H](C)[C@H](CN(C)C(=O)NC2CCCCC2)Oc2ccc(NC(=O)Nc3ccc(C(F)(F)F)cc3)cc2CC1=O | -21.8[16.7 µM] | 1.8
C[C@H](CO)N1C[C@H](C)[C@H](CN(C)C(=O)c2ccccc2F)Oc2ncc(C#Cc3ccncc3)cc2C1=O | 0.3[16.7 µM] | 4.9
C[C@@H]1CN([C@H](C)CO)C(=O)Cc2cc(NS(=O)(=O)c3cn(C)cn3)ccc2O[C@@H]1CN(C)S(=O)(=O)c1cn(C)cn1 | -2.4[16.7 µM] | 6.5
C[C@H](CO)N1C[C@H](C)[C@H](CN(C)C(=O)Nc2ccc(F)cc2)Oc2c(NS(=O)(=O)c3ccc(F)cc3)cccc2C1=O | -62.2[16.7 µM] | 0.7
